# eIF4H inh – inhibitors of RNA binding by human eIF4H; Q15056; eIF4H fluorescence polarization binding assay; inhibition, % at 35 µM; 290,000 compounds, 0.94% hits;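 active = 50% or more with normal probe brightness, or confirmed in later tests; inconclusive = above 50% with abnormal brightness, or retests that disagree; inactive = below 50% or failed in later tests; about a fifth of its hits are not listed in these tables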;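 also: calls also rest on retests at 20 µM and on dose response follow-up; 0% = protein and probe with vehicle and 100% = probe without protein; strong numbers were not always called active; many hits fall short of the cut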
# UUG fidelity – alters start codon recognition fidelity in yeast; S. cerevisiae UUG-firefly luciferase reporter, luminescence/redox ratio; activity score, % at 18.7 µM; 350,000 compounds, 0.13% hits; AID 602363;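 active = replicate mean at a twofold rise or more, about +100% in these data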;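 also: firefly luciferase made from a UUG start codon reports start codon fidelity; reporter light over untreated wells divided by growth signal over untreated wells; some hits fall short of that in this replicate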
# PABP FP inh – PABP-poly(A) binding inhibition; PABP-poly(A) RNA binding, fluorescence polarization; P11940; AID 2014; inhibition, % at 35 µM; 290,000 compounds, 1% hits;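 active = 50% or more with normal probe brightness, or confirmed in later tests; inconclusive = above 50% with abnormal brightness, or retests that disagree; inactive = below 50% or failed in later tests; about a fifth of its hits are not listed in these tables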;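 also: calls also rest on retests at 20 µM and on dose response follow-up; controls were probe without protein and protein plus probe with vehicle; some compounds called inactive have numbers as strong as hits; many hits fall short of the cut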
# CSC inhib – blocks cancer stem cells; cancer stem cell-like cells viability, luminescence; inhibition, % at 7.5 µM; 300,000 compounds, 1.1% hits; AID 2717;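 active = mean at 75% or more and at least half the replicates too; inconclusive = mean and replicates disagree; tested in HMLE shEcad cells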;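 also: 0% = median of negative and 100% = median of positive control wells; the first replicate is given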
# MT1-MMP act inh – inhibitors of human MT1-MMP activation; HT1080 RFP-PRO-GFP cells, GFP/RFP ratio fluorescence, overnight; percent of plate control window, DMSO zero; 360,000 compounds, 0.061% hits; P50281; GFP/RFP ratio change, % at 20 µM;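 active = GFP/RFP ratio change of at least 30% with cell ATP level not reduced by more than half and red fluorescence within 50% of control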; also: strong numbers were not always called active
#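 Read-out: GFP/RFP fluorescence ratio; Test system: RFP-PRO-GFP reporter HT1080 cells; Compound dosing: single-point 20 µM compound, 1% DMSO; Times: overnight compound exposure at 37 °C.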
# Rce1 inh – blocks yeast Ras-converting enzyme. 290,000 compounds, 0.27% hits. calls only. yeast membranes, quenched prenylated peptide cleavage fluorescence;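 active = fall in fluorescence gain of 50% or more versus controls, with final raw signal at or below 3038400; inconclusive = same 50% fall but final raw signal above 3038400; inactive = fall in fluorescence gain under 50%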;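 also: plate controls were neutral control wells for no effect and wells lacking membranes for full effect; tested at 10 µM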
# Target sequence (Q03530 whole entry, looked up): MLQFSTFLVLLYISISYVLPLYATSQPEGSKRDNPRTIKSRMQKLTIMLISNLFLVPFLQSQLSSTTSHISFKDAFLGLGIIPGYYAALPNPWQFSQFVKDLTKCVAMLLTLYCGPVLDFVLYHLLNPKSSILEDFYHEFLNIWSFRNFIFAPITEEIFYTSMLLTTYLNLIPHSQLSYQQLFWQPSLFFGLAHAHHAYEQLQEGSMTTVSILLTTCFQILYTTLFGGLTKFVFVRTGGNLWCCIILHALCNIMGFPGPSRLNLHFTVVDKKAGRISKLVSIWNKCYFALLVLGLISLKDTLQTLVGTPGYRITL
# HIV Env fusion – HIV envelope-mediated fusion inhibition. HeLa-JRFL Env/CEM21 cell fusion, luciferase. inhibition, % at 12.3 µM. 360,000 compounds, 1.1% hits;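 active = mean replicate inhibition score of at least 50 and every replicate individually at or above 50; inconclusive = only one of the two criteria met; inactive = mean below 50 and not all replicates reaching 50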;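 also: 0% = plate neutral controls and 100% = maraviroc near 300 nM; one replicate is shown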
# MT1-MMP act inh RFP – also measured in MT1-MMP act inh; calls as there; RFP signal change, %; measured here: RFP expression control read;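 0 = vehicle wells; hits needed this value within 50% of zero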
# * marks the source's active call; other numbers are inactive results; i = inactive; ? = inconclusive; / = not tested or not shown.
# Preview, four compounds:
SMILES,eIF4H inh,UUG fidelity,PABP FP inh,CSC inhib,MT1-MMP act inh,MT1-MMP act inh RFP,Rce1 inh,HIV Env fusion
O=C(Nc1cccc(NC(=O)C2CCCO2)c1)C1CCCO1 (stereo not drawn),-5,-4,-5,1,1,3,i,/
CCn1c(COc2ccccc2)nnc1SCC(=O)NCc1ccco1,-10,/,-2,9,3,0,i,14
COc1ccc(N2CCN(C(=O)C3CCN(S(=O)(=O)c4ccc5c(c4)oc(=O)n5C)CC3)CC2)cc1,-8,-8,-6,3,2,-3,i,2
O=C(Nc1c(F)cc(F)cc1Br)c1cc(-c2ccccc2)on1,5,-16,-3,13,-1,-5,i,-19

# Results (from the top)
SMILES,eIF4H inh,UUG fidelity,PABP FP inh,CSC inhib,MT1-MMP act inh,MT1-MMP act inh RFP,Rce1 inh,HIV Env fusion
O=C(Nc1cccc(NC(=O)C2CCCO2)c1)C1CCCO1 (stereo not drawn),-5,-4,-5,1,1,3,i,/
CCn1c(COc2ccccc2)nnc1SCC(=O)NCc1ccco1,-10,/,-2,9,3,0,i,14
COc1ccc(N2CCN(C(=O)C3CCN(S(=O)(=O)c4ccc5c(c4)oc(=O)n5C)CC3)CC2)cc1,-8,-8,-6,3,2,-3,i,2
O=C(Nc1c(F)cc(F)cc1Br)c1cc(-c2ccccc2)on1,5,-16,-3,13,-1,-5,i,-19
Cc1nc(C)n(C(Oc2ccc(Cl)cc2Cl)C(=O)C(C)(C)C)n1 (stereo not drawn),/,-19,/,-9,-9,-3,i,3
CCCCC(=O)Nc1cc(Cl)ccc1C(=O)O,-6,-1,-2,-8,-2,3,i,5
NC(=O)c1c(NC(=O)c2ccc(F)cc2)sc2c1CCC2,-4,-7,6,14,-9,1,i,-205
O=C(CNC(=O)c1ccc(Br)cc1)NCC(=O)OCC(=O)c1ccc(F)cc1,0,-3,-2,-9,-4,-3,i,6
C/C(=N\NC(=O)COc1ccccc1-c1ccccc1)c1ccccn1,13,-25,6,45,10,-6,i,11
CCCCNC(=O)[C@@](CC)(ONc1ccccc1C(F)(F)F)c1cccc2ccccc12,/,-15,/,29,4,0,/,1
CNC(=S)Nc1cccc(C(=O)O)c1,-2,-12,-4,-16,2,3,i,9
Cc1[nH]c2ccc(F)cc2c1CCN(Cc1cccnc1)C(=S)NC(C)(C)C,-8,-18,-3,-4,3,5,i,8
Cc1ccc(C(=O)N2Cc3ccccc3CC2C(=O)O)cc1 (stereo not drawn),-7,-7,-3,-9,4,2,i,/
COc1ccc(SCCc2nnc(-c3ccccc3)o2)cc1,-11,-6,-1,/,-3,-3,i,11
O=C(CO/N=C/c1cccc([N+](=O)[O-])c1)NC1CCCCC1,3,5,5,5,1,-3,i,-6
O=C1CC(C(=O)Nc2ccc(Br)cc2)C2(CCCC2)O1 (stereo not drawn),-6,/,1,-4,/,/,i,/
O=C1NC(Cc2ccc(O)cc2)c2nc3cc(F)ccc3c(=O)n2-c2cc3ccccc3cc21 (stereo not drawn),/,-5,/,/,-13,-18,/,-45
COc1ccccc1NC(=O)COC(=O)CC(C)(C)CC1=NS(=O)(=O)c2ccccc2N1,/,-19,/,-10,3,-8,i,7
CCCCn1c(N)c(N(CC)C(=O)CSCc2c(C)noc2C)c(=O)[nH]c1=O,-5,5,18,-3,-2,3,i,-5
CC(C)(C)OC(=O)[C@H](Cc1ccccc1)NC(=O)c1nc[nH]c1C(=O)N1CCc2ccccc2C1,2,-16,1,-4,-1,-4,i,5
CCN(CC)CC(=O)Nc1c2c(nc3ccccc13)N(C)CC2,6,0,15,-8,-5,0,i,3
Cc1ccc(NC(=O)CN2C(=O)CN(C)C2=O)cc1S(=O)(=O)N1CCCCC1,6,/,-1,-3,2,2,i,9
COc1cccc(C(=O)OCC(=O)NC(=O)NC2CCCC2)c1O,-8,/,10,-3,3,3,i,-6
O=C(O)CCCC(=O)Nc1ccccc1C(=O)N1CCOCC1,-4,/,5,-2,2,4,i,-10
CC1CCCCC1NC(=O)CO/N=C/c1ccccc1OC(F)F (stereo not drawn),-10,2,1,23,-6,0,i,-6
SMILES,eIF4H inh,UUG fidelity,PABP FP inh,CSC inhib,MT1-MMP act inh,MT1-MMP act inh RFP,Rce1 inh,HIV Env fusion
COc1ccc(-c2ccc([C@H]3[C@@H]4C=CCC[C@@]4(C)C(=O)N3Cc3ccccc3)c(F)c2)cc1,0,-15,-4,54,4,-7,i,?
CCC(NC(=S)NCc1ccc(F)cc1)c1ccc(C(C)C)cc1 (stereo not drawn),16,-37,-6,52,0,-9,i,42
COC(=O)C1=C(C)NC(C)=C(C(=O)OC)C1C1CC=CCC1 (stereo not drawn),-5,9,3,-10,-1,-4,i,/
NC(=O)C1CCN(CCCNC2CC(=O)N(Cc3ccc(N4CCCC4=O)cc3)C2=O)CC1 (stereo not drawn),/,-17,/,-5,2,4,i,-11
Cc1ccccc1CC(=O)NCC1CCCCC1,-2,-6,-4,/,-1,0,i,-80
CN1/C(=C/C(=O)C2CCC2)Sc2ccccc21,-5,/,-1,26,11,3,i,/
O=C(O)c1ccc(CSc2nnc(-c3ccc(Cl)cc3)o2)cc1,-4,-9,4,-27,5,-2,/,-16
CNc1nc(Cl)nc2c1ncn2-c1ccccc1,/,-3,/,/,1,1,/,-35
N#CC1(Nc2ccc3ccccc3c2)CCCC1,/,-39,/,/,1,5,/,-18
CC12CCC(=O)C=C1CCC1C2CCC2(C)C(C(=O)CO)CC(O)C12 (stereo not drawn),/,-11,/,/,1,1,/,2
COC(=O)c1sccc1NC(=O)c1cc(OC)cc(OC)c1,-8,-7,-5,1,10,16,i,-52
CC(=O)Cn1c(C(F)(F)F)nc2ccccc21,-1,/,1,/,-4,1,i,/
N#CC1=C(N)C2=C(N3CCCCC3)CCCC2C1(C#N)C#N (stereo not drawn),110*,-5,112*,-11,10,28,i,/
Cc1cccc(N2CCN(C(c3ccc(N(C)C)cc3)c3nnnn3C(C)(C)C)CC2)c1C (stereo not drawn),0,-8,-9,-15,-11,-6,i,-2
O=C(CC1SC(=O)N(c2ccccc2)C1=O)Nc1ccccc1 (stereo not drawn),-2,/,-3,/,-1,3,i,-51
CCCC(=O)Nc1ccc(NC(=O)C23CC4CC(CC(C4)C2)C3)cn1,-2,-1,-2,-8,-3,-1,i,-4
CN(C)N1C(=O)CC(NNC(=O)c2ccncc2)C1=O (stereo not drawn),3,/,11,-25,-2,2,i,/
CCOc1ccc2nc(SCC(=O)NC(=O)NCc3ccco3)sc2c1,7,-15,0,-6,1,1,i,/
CCOC(=O)c1sc2nc(SCC(=O)NCc3ccco3)n(Cc3ccccc3)c(=O)c2c1C,4,/,17,25,-1,-1,i,13
O=C(C1=NN[C@@H]2C(=O)N(c3ccccc3C(F)(F)F)C(=O)[C@H]12)c1cnccn1,-1,/,-6,/,-1,1,i,-7
CC(=O)c1c(O)c2cccc3c2n(c1=O)CCC3,1,-3,13,-16,0,-1,i,26
C/C=C(/C)C(=O)Nc1cccc(C2=NOC3(C2)C[C@@H](C(N)=O)N(C(=O)C2(C)CC2)C3)c1 (stereo partly drawn),-4,-12,7,-16,4,0,i,-5
O=C(COC(=O)/C=C/c1cccc([N+](=O)[O-])c1)NCC1CCCO1 (stereo not drawn),-10,/,48,-1,0,2,i,0
CCn1c(NC(=O)C(C)C)c(-c2cccs2)c(=O)c2ccccc21,2,/,-3,-10,0,2,i,9
O=C(O)CC(SCC(=O)Nc1ccccc1)C(=O)O (stereo not drawn),0,/,-7,-17,1,3,i,5
SMILES,eIF4H inh,UUG fidelity,PABP FP inh,CSC inhib,MT1-MMP act inh,MT1-MMP act inh RFP,Rce1 inh,HIV Env fusion
COC(=O)c1sc2cc(C(F)(F)F)cnc2c1-c1cccnc1,1,-3,-1,-7,-1,4,i,-129
COc1cc2cc(Br)cc(Br)c2nc1C,4,-45,0,-2,-8,-6,i,-257
Cn1c(-c2cccc(OCc3ccccc3)c2)nc2c1c(=O)[nH]c(=O)n2Cc1ccccc1,-8,-4,5,6,1,4,/,/
Cc1ccc(Nc2nc3nonc3nc2N(C)C)cc1,-4,-5,7,-1,2,6,i,/
C#CCn1c(CCNC(=O)c2ccco2)nc2ccccc21,-2,-13,3,15,-2,-1,i,-1
C=CCn1c(Oc2cccc(C)c2)nc2c1c(=O)n(C)c(=O)n2C,-5,-9,-7,-7,-3,-2,i,13
COc1ccc(N2CCN(C(=O)CCNS(=O)(=O)c3cc(Br)cnc3N)CC2)cc1,-2,-1,-4,-16,-3,-2,i,/
O=C(O)c1ccccc1-c1ccccc1C(=O)Nc1ccc(OC(F)(F)F)cc1,6,4,2,/,-3,-1,i,-5
Cc1c(C(=O)NCc2cccnc2)oc2ccc(S(=O)(=O)N3CC(C)CC(C)C3)cc12 (stereo not drawn),-8,-3,-10,-9,1,4,i,-5
COc1ccc(CC(=O)NNc2ncnc3c2cnn3C)cc1OC,-2,/,-7,-13,7,9,i,-14
O=C1CC(c2ccccc2)CC(O)=C1C=Nc1ccc(O)cc1 (stereo not drawn),3,/,5,-7,2,2,i,-10
O=C(Nc1ccccc1-c1ccccc1)c1cccc([N+](=O)[O-])c1,-1,0,-2,7,1,1,i,-21
COc1ccc(C2NS(=O)(=O)OCC2C)cc1 (stereo not drawn),-3,-30,-7,26,1,0,i,/
COc1ccc(S(=O)(=O)NCCSCc2ccc(Cl)cc2)cc1NC(C)=O,/,4,/,/,1,-4,/,17
O=S(=O)(Nc1ccc(-c2cn3c(n2)SCC3)cc1)c1cc(F)ccc1F,/,-15,/,/,-1,-3,/,12
O=C(NC1CCCCC1)N(Cc1cc2cc3c(cc2[nH]c1=O)OCCO3)CC1CCCO1 (stereo not drawn),-6,-6,-2,-2,6,3,i,-35
COC(=O)C(C(=O)OC)c1ccc(NC(=O)c2cccc(Cl)c2)cc1,0,/,-4,-1,/,/,i,-29
Cc1ccc(S(=O)(=O)CCC(=O)OC(C)C(=O)N2CCc3ccccc32)cc1 (stereo not drawn),/,-11,/,-8,-5,-1,i,-7
CCOC(=O)C1(CC)NC(c2cccc(F)c2)C2C(=O)N(CC)C(=O)C21 (stereo not drawn),-2,-11,14,-10,5,5,i,-13
COc1cc(C)c(CN2CCCCC2CO)cc1C (stereo not drawn),-6,-7,-5,0,3,5,i,-2
COc1ccccc1OCCSc1ncnc2nc[nH]c12,-8,-10,15,-4,2,-8,i,/
COc1ccc(Cl)cc1C(=O)Nc1ccc2c(c1)OCCO2,-3,1,10,/,-3,2,i,-74
C#CCOCCOCCOCCNc1nc(N2CCN(C(=O)CCCCCCCCCCNC(=O)Cn3cc(C[C@@H](C)O)nn3)CC2)nc(N2CCN(C(=O)CCCCCCCCCCNC(=O)[C@@H]([C@H](C)O)n3cc(C)nn3)CC2)n1,/,-11,/,158*,-3,-9,/,/
CC(C)(C)N1CC(c2nc3ccccc3n2CCOc2ccccc2)CC1=O (stereo not drawn),-2,-15,-7,-8,-3,-1,i,/
CCOc1ccc(-c2cc(C(=O)NN)[nH]n2)cc1,-9,/,-4,/,0,2,i,/
Oc1ccc(/C=N/Nc2nccnc2Cl)c(O)c1,16,-30,-6,95*,-6,-9,i,?
CCn1cc(C(=O)NCC(C)C)c(=O)c2cc(F)c(N3CCN(C)CC3)cc21,-10,7,-7,10,2,0,i,-17
CCOc1ccc(C(=O)CCC(=O)NN2C(=O)NC3(CCCCC3)C2=O)cc1,/,-14,/,-2,-2,-2,/,-33
CC(OC(=O)C12CCC(=O)N1c1ccccc1S2)C(=O)Nc1cccc(Cl)c1 (stereo not drawn),/,-3,/,-12,-6,0,/,/
O=C1CSC(c2ccc(F)cc2)N1c1nc2ccccc2s1 (stereo not drawn),4,-3,9,2,5,6,i,28
